Bfl-1 A1 inh = inhibitors of the anti-apoptotic protein A1, read as caspase activation | MEF A1-2A-BIM cells, Caspase-Glo 3/7 luminescence, 3 h; percent of clofoctol response, vehicle zero | caspase activation, % (test concentration not listed) | 330,000 tested, 0.066% active;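 active = over half of replicate activation scores above 10%, or exactly half above 10 with the replicate mean above 10; inconclusive = replicate mean below 10 yet half the replicates above 10; inactive = over half of replicates below 10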;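 note: wells of about 30 µL received 50 nL stock; many hits fall short of the cut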
T cruzi repl = T. cruzi replication inhibition; inhibition, % (concentration not given with the values); T. cruzi beta-gal in NIH3T3, luminescence, 90 h; 300,000 tested, 1.4% active;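 active = mean inhibition across valid replicates above about 55%, limit read from the data; inconclusive = mean below that limit but half or more replicates reach it; inactive = mean below it, under half of replicates reach it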;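 note: signal also drops with host cell toxicity which is not excluded here; 0% = plate median of DMSO wells and 100% = zero luminescence signal; higher percent means less beta-gal luminescence so fewer parasites; stock transfer was 50 nL into about 50 µL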
UCH37 DUB inh = inhibitors of human deubiquitinating enzyme UCH37; 330,000 tested, 0.33% active; purified proteasome/UCH37, Ub-AMC cleavage fluorescence; inhibition, % (no concentration beside the values); Q9Y5K5;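 active = mean of two replicates above 20%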;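 note: 0% = compound-free wells with enzyme and 100% = wells lacking proteasome; stock transfer was 100 nL into about 20 µL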
Target sequence (Q9Y5K5 whole entry, looked up): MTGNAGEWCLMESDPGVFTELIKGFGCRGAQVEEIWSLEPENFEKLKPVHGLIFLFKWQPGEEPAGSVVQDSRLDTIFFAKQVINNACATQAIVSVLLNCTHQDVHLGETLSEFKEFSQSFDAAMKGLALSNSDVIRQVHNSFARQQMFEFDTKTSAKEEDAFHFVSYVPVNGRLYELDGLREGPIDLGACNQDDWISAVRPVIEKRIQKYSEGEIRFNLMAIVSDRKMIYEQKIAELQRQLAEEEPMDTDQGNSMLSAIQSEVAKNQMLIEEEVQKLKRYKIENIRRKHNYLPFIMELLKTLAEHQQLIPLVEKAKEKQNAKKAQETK
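Material: Human UCH37 enzyme supplied as purified proteasome complex | Schedule: 30 min preincubation with enzyme, 25 min cleavage at room temperature | Detection: AMC fluorescence 355/460 nm | Measure: % inhibition of Ub-AMC cleavage fluorescence | Controls: Wells without proteasome as full block, compound-free enzyme plus substrate as uninhibited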
Beta apoptosis = blocks beta cell apoptosis; INS-1E cytokine-induced death, ATP luminescence, 48 h; percent of positive-control rescue, neutral wells zero; protection from apoptosis, % (no concentration beside the values); 300,000 tested, 0.8% active; AID 435005;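 active = all replicates at 75% or more, or half of them and the mean; inconclusive = half reach 75% but not the mean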;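 note: 0% = cytokine-treated negative control wells and 100% = positive control rescue; higher means more ATP so stronger rescue from cytokine killing; wells of about 40 µL received 100 nL stock; the first replicate is given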
rRNA inh HTS = selective bacterial rRNA inhibition in E. coli; E. coli WT GFP vs humanized-ribosome RFP mutants, fluorescence, 24 h; hits give low values; DMSO median 0, no signal -100; GFP signal change (wild-type ribosome), % (concentration not given with the values); 350,000 tested, 1.6% active;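 active = significant combined selectivity score with lowered wild-type GFP, culture density cut under 30%, mutant RFP and density less affected; inactive = any of these conditions unmet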; note: one replicate is shown; some compounds called inactive have numbers as strong as hits
MLL AF4-AF9 inh = inhibitors of human MLL-AF4/AF9 interaction; inhibition, % at 10 µM; 350,000 tested, 0.47% active; AlphaScreen, biotin-AF4 peptide binding to FLAG-AF9; P42568;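 active = every replicate reaching a set inhibition limit, whatever the replicate mean, cut at about 25% in these data; inconclusive = mean inhibition reaches that limit but some replicates miss it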;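 note: 0% = plate neutral control median and 100% = total signal loss; the record names both 10 and 1 µM as test concentration; the first replicate is given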
FGF22 binding = FGF22 (human) thermal shift binding; 340,000 tested, 1.5% active; AID 651658; Q9HCT0; recombinant FGF22 thermal shift, SYPRO orange fluorescence; percent of sucrose octasulfate shift, DMSO zero; calls only at 9.99 µM;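 active = melting point raised past a set limit in the mean and every replicate; inconclusive = no clear call; three in four hits are not shown here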
Target sequence (Q9HCT0 whole entry, looked up): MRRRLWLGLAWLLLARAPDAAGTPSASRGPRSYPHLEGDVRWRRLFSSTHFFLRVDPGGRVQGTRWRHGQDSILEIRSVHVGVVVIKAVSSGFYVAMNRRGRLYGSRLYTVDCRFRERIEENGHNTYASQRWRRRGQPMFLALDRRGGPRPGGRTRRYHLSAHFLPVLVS
E coli growth = E. coli growth inhibition | 330,000 tested, 0.21% active | OD600 absorbance (no concentration beside the values) | Escherichia coli growth, OD600, 23 h; hits give low values;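 active = OD600 absorbance below the run mean of sample wells minus 3.6 SD, in any replicate, cut at about 0.56 in these data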;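 note: stock transfer was 300 nL into about 60 µL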
rRNA inh HTS OD600 = also measured in rRNA inh HTS; calls as there; OD600 change, %; measured here: OD600 growth;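 optical density of the mix in the first replicate; 0 = DMSO median and -100 = no signal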
rRNA inh HTS RFP = further read-out of rRNA inh HTS, marked with its call; RFP signal change, %; measured here: RFP humanized mutant strains;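 first replicate; 0 = DMSO median and -100 = no signal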
Active calls of the source: *; i = inactive; ? = inconclusive; . = not tested or not shown. These rows are one share of the data (hit frequency here may not be typical).

SMILES	rRNA inh HTS OD600	UCH37 DUB inh	rRNA inh HTS RFP	E coli growth	Bfl-1 A1 inh	Beta apoptosis	T cruzi repl	rRNA inh HTS	FGF22 binding	MLL AF4-AF9 inh
CC(OC(=O)c1ccccc1NCCO)C(=O)NCC(=O)Nc1ccc(F)c(F)c1F (centres undefined)	21	-482	5.0	0.7	0.1	-5	-4	9	i	-3.0
Cc1ccc(OCC(=O)NCc2cccs2)c([N+](=O)[O-])n1	1	2.9	-3.1	0.75	0.8	-4	8	4	.	-3.0
COc1ccc(C(N)c2nccc3cc(OC)c(OC)cc23)cc1OC (centres undefined)	.	-1.8	.	0.7	0.0	-6	29	.	.	.
CN1CCN(C(=O)c2ccc(-c3ccc(Br)cc3)o2)CC1	-2	5.7	2.8	0.63	-1.5	-5	.	-5	i	7.1
COc1ccc(CNCc2cc3c(cc2[N+](=O)[O-])OCO3)cc1	5	3.4	-4.4	0.69	1.5	0	10	6	i	1.8
Cc1ccc(-n2c(C)c3c(C)nnc(C)c3c2C)cc1C	.	-15	.	0.66	0.1	24	29	.	.	.
CC(C)c1ccc(C(C)NCCS(=O)(=O)c2ccc(Br)cc2)cc1 (centres undefined)	-84	2.2	-19	0.62	0.2	-7	10	-62	i	-5.0
CC1CC(C)CN(CCCNC(=O)c2ccc3c(c2)ncn3C2CCCC2)C1 (centres undefined)	8	.	1.0	.	-0.7	-2	10	9	i	-3.4
CN(C)S(=O)(=O)c1ccc(C(=O)NC(=O)CSc2nncs2)cc1	-3	-0.1	-0.1	0.71	2.1	-5	.	-1	i	-1.3
COc1cccc(-c2cc(N3C(=O)Nc4ccccc4N3O)n[nH]2)c1	6	.	7.1	.	0.7	5	-4	9	i	-6.5
COc1ccc(CNC(=O)C(c2ccncc2)N(C(=O)Cc2cccs2)c2ccc(C)cc2)cc1 (centres undefined)	.	1.6	.	0.7	0.6	-8	?	.	.	.
COC(=O)C1CCN(c2nc3ccccc3nc2C(C#N)C(=O)OCC(C)C)CC1 (centres undefined)	.	-4.1	.	0.72	0.9	18	42	.	.	.
Fc1ccccc1COc1ccc(Br)cc1CNCc1cccnc1	-73	1.5	-10	0.63	0.3	-4	54	-44	.	5.8
CCOc1ccc(CCN2CN(CC)CNC2=S)cc1OCC	-2	1.6	-1.5	0.72	0.8	-5	-27	3	i	-1.4
COc1ccc(-c2cc(-c3ccccc3)c(C#N)c(SCC(=O)O)n2)cc1	-43	-275	-13	0.65	0.2	0	-4	-52	i	-1.3
Nc1ccc2cn[nH]c2c1	-3	2.1	1.4	.	-0.4	1	-9	3	i	-0.4
CC(Oc1ccc(Cl)cc1Cl)C(=O)OCC(=O)c1c(N)n(C)c(=O)n(C)c1=O (centres undefined)	-71	1.1	-16	0.64	-0.1	-4	.	-45	i	3.7
CC(C)Cn1c([N+](=O)[O-])nc2c1c(=O)[nH]c(=O)n2C	5	3.7	-0.2	0.71	0.0	-8	-2	17	i	-5.5
O=C(COC(=O)c1ccc(Br)o1)NCc1ccc(Cl)cc1	23	3.9	7.4	0.7	3.0	-3	.	14	i	-1.4
N#Cc1cnn(-c2nc(SCc3ccccc3)nc3sc4c(c23)CCCC4)c1N	.	-2.2	.	0.75	-0.2	-4	60*	.	.	.
CC(=O)N1CCN(CCS(=O)(=O)c2cc(Cl)ccc2Cl)CC1	6	6.4	-2.3	0.68	-0.1	-13	.	4	i	0.6
CCOC(=O)Cn1c(=O)c(-c2ccccc2N)nc2ccccc21	-6	2.0	0.2	0.75	0.9	.	0	-2	i	6.5
O=c1c2ccccc2nnn1-c1ccc(Br)cc1	8	1.1	-0.8	0.66	-2.7	2	-11	6	i	-1.1
Cc1ccc2nc(Cl)c(CNCc3ccccc3)cc2c1	-12	.	1.6	.	-0.6	-4	-9	-15	i	-1.5
Cc1cc(=O)[nH]c(NN=C2CCCCC2C)n1 (centres undefined)	4	-0.8	1.3	0.69	.	.	.	9	i	-0.1
C=CCNC(=O)C1CC2Cn3c(nc4ccccc43)C2N1C (centres undefined)	17	4.8	-3.9	0.7	0.9	3	-24	10	i	0.3
COCCNC(=O)CN(Cc1ccc2c(c1)OCO2)C(=O)CCC(=O)Nc1nccs1	.	4.5	.	0.76	-0.3	-4	-3	.	.	.
CC(C)(C)c1ccc(OCCC(=O)OCC(=O)Nc2cccnc2Cl)cc1	-1	4.6	5.2	0.64	-0.1	-7	-8	7	i	-1.1
CCOc1ccc(S(=O)(=O)N2CCN(C(=O)CN3C(=O)NC4(CCCC4)C3=O)CC2)cc1	12	-1.0	-0.8	0.71	0.2	-4	-5	10	i	?
O=C(NCc1cccs1)c1ccc2c(c1)OCCO2	.	0.0	.	0.72	1.0	-4	0	.	.	.
Cc1cc(C(=O)OCC(=O)Nc2ccccc2C#N)c(C)o1	0	-0.5	-2.5	0.62	.	.	.	1	i	-0.4
Cc1cc(=O)[nH]c(SCC(=O)N2CCc3ccccc3C2)n1	0	1.7	3.6	0.73	-0.7	2	30	-6	i	-0.7
COc1ccc2c(Cl)c(C(=O)N/N=C3\CCCC(=O)C3)sc2c1	-24	.	-1.4	.	-0.9	2	1	-4	i	4.8
CCn1c(SCC(=O)Nc2cc(OC)c(OC)c(OC)c2)nnc1-c1cccs1	.	2.0	.	0.67	0.1	2	-15	.	.	.
CC(C)c1cc(CN2CCN(Cc3ccc(F)c(F)c3)C(CCO)C2)[nH]n1 (centres undefined)	3	1.8	-0.3	0.64	0.8	8	22	-1	i	-1.0
Cc1nn(Cc2ccccc2)c(C)c1NC(=O)c1noc2c1CCc1ccccc1-2	.	-0.1	.	0.67	0.1	-8	17	.	.	.
COc1ccc(NC(=O)C2(c3ccc(NC(=O)c4ccc(C)cc4)cc3)CCCC2)cc1	8	-9.0	-7.4	0.7	0.3	-7	1	18	i	4.0
CCC1Oc2ccc(C)cc2N(CC(=O)NCc2cccs2)C1=O (centres undefined)	1	0.5	0.4	0.67	-0.6	-1	-5	5	i	-2.6
CCOC(=O)c1sc(N)c(C(N)=O)c1C	8	5.6	8.3	0.7	1.1	-9	-9	5	.	-0.6
O=C(CC1C[C@H](C(=O)N2CCOCC2)[C@@]2(CCC3CCCC3)c3[nH]c4ccccc4c3CCN2C1=O)NCc1ccco1 (some centres undefined)	12	-0.2	-1.1	0.71	0.7	4	.	17	i	2.5
Cc1ccc(S(=O)(=O)N(CCCN2CCCC2=O)Cc2cc3c(C)ccc(C)c3[nH]c2=O)cc1	.	-9.8	.	0.73	1.3	-1	21	.	.	.
CC(=O)c1cccc(NC(=O)C2=CN3CCS(=O)(=O)N=C3C=C2)c1	7	-12	0.7	0.73	1.9	-3	.	8	i	-1.2
CCOc1ccc(NC(=O)/C(C=Nc2ccccc2)=C(\C)O)cc1	28	4.4	7.9	0.65	0.3	3	-8	11	i	0.6
CCCC(=O)Nc1nnc(CCc2ccccc2)s1	0	1.2	-4.7	0.69	-0.1	-5	5	1	i	1.2
CCOc1ccc(C2Nc3cccc4cccc(c34)N2)cc1OC	.	-12	.	0.56*	0.0	6	-17	.	.	.
Cn1c2ccccc2c(=O)c2ccc(F)cc21	-37	-161	-11	0.63	-1.8	3	-8	-24	i	-2.7
Cc1ccccc1NC(=O)/C(C#N)=C\c1cccnc1	9	1.6	3.1	0.66	0.2	5	0	3	i	-17
COc1ccc(-n2c(SCC(=O)NC3CCCCC3)nc3ccsc3c2=O)cc1	5	2.5	-1.5	0.69	-0.1	1	23	2	.	.
COc1ccc(NC(=O)C(=O)NCCC2CCCCN2S(=O)(=O)c2cccs2)cc1 (centres undefined)	7	2.9	-0.3	0.69	0.2	.	18	1	i	-0.1
N#C/C(=C\c1c[nH]c2ccccc12)C(=O)NC1CCCC1	-26*	3.9	-3.4*	0.62	2.1	-1	-4	-35*	i	8.5
COC(=O)C(O)(CC(=O)Nc1cc(Cl)ccc1Cl)C(F)(F)F (centres undefined)	.	-0.7	.	0.76	0.7	-4	8	.	.	.
COC(=O)c1ccccc1NC(=O)N1CCN(Cc2ccco2)CC1	-10	-1.5	1.8	0.69	-0.2	2	-2	-5	i	1.5
CCCCN1C(=N)N([C@@H](CCC)CN2CCC[C@H]2CN2C(N)=NC[C@@H]2Cc2ccccc2)C[C@H]1[C@H](C)CC	-14	-0.5	19	.	-0.1	-6	.	-22	i	.
CC(=O)Nc1ccc(NC(=O)Cn2c(-c3ccc(F)cc3)cnc2SCC(=O)Nc2c(C)cccc2C)cc1	.	2.6	.	0.73	0.4	-9	-8	.	.	.
CN(C(=O)c1ccc(NC(=O)Cc2ccc(NC(=O)C3CCN(C(=O)C4CCCC4)CC3)cc2)cc1)C1CC1	3	0.2	7.2	0.71	0.4	-2	.	5	i	.
CCOc1ccc(N2C(=O)C3C4C=CC([C@H]5CC45)[C@@H]3C2=O)cc1 (some centres undefined)	4	0.4	-0.3	0.69	0.7	-2	-24	2	i	-2.0
CCOC(=O)c1ccc(Nc2cc(C)nc(-c3ccccc3O)n2)cc1	-4	-17	-1.9	0.75	-0.4	10	52	8	i	6.9
COC(=O)c1cccc(NC(=O)CCCN2C(=O)NC3(CCCC3)C2=O)c1	6	-0.1	-2.8	0.68	.	.	.	3	i	-20

Compound activity deposited in PubChem by several laboratories.
